Bioassay records as filed in PubChem BioAssay.
ALR H2O2 inh: inhibitors of human ALR sulfhydryl oxidase, primary screen, biochemical, H2O2 detection, HRP-luminol luminescence, single point | FAD-linked sulfhydryl oxidase ALR (Homo sapiens), P55789 | inhibition, % (concentration not given with the values) | 290,000 tested, 3.8% active | purified ALR, DTT oxidation;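 active = mean and each replicate at 75% or more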;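 note: stock transfer was 7.5 nL into about 7.5 µL; 0% = neutral wells and 100% = wells with inactivated enzyme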
Target sequence (P55789 whole entry, looked up): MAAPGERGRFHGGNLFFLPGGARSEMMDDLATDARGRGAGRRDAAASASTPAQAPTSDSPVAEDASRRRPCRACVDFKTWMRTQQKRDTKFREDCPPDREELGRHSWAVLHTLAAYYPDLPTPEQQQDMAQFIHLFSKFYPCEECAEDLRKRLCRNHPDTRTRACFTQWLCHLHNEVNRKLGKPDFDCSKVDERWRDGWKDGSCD
HNF4A DNA FP: change in binding of human HNF4A to DNA, primary screen, biochemical, fluorescence polarization, FITC-DNA; 1 h; activity change, % at 10 µM; 360,000 tested, 0.3% active; in the data active = activity change above about 30%, passing the limit was not always enough;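 note: controls were the assay level and a saturating level of protein; the project sought stronger binding though the title names inhibitors; some compounds called inactive have numbers as strong as hits; positive values seem to mean higher polarization but the record does not say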
Target sequence (P41235 whole entry, looked up): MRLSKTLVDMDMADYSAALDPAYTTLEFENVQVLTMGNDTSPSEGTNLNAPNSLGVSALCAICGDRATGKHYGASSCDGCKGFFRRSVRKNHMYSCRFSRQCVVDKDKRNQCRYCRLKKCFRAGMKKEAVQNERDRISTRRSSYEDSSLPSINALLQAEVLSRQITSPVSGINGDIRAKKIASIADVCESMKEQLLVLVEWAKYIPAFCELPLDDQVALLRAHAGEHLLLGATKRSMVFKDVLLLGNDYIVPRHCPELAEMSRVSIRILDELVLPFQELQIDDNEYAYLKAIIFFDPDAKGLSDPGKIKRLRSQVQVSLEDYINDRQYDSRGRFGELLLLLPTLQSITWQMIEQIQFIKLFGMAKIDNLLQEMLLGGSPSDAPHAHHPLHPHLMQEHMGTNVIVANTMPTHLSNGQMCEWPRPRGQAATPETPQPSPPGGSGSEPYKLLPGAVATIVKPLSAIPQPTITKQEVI
LANA-H2A inh: blockers of LANA interaction with H2A/H2B – biochemical, FP readout, HTS, primary screen | Protein LANA1 (Human herpesvirus 8 type P (isolate GK18)), Q9QR71 | 320,000 tested, 0.6% active | AID 2629, 2010 | inhibition, % (concentration not given with the values) | cell-free LANA-H2A/H2B peptide, fluorescence polarization; in the data active = inhibition mostly above about 10%, no sharp cut-off; inactive = mostly below about 6.7%;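 note: stock transfer was 7.5 nL into about 10 µL; 0% = median of vehicle wells and 100% = median of positive control wells; one replicate is shown; the record names a cut of 25% in any replicate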
UCH37 DUB inh: inhibitors of human UCH37 deubiquitinase, primary screen, biochemical, Ub-AMC cleavage, fluorescence. Ubiquitin carboxyl-terminal hydrolase isozyme L5 (Homo sapiens), Q9Y5K5. purified proteasome/UCH37. inhibition, % (concentration not given with the values). 330,000 tested, 0.33% active;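 active = mean of two replicates above 20%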;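 note: 0% = compound-free wells with enzyme and 100% = wells lacking proteasome; stock transfer was 100 nL into about 20 µL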
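Assay system: Proteasome-bound UCH37. Buffer or medium: pH 7.4 Tris-HCl (50 mM) with ovalbumin, ATP-MgCl2, DTT. Incubation: 30 min preincubation with enzyme, 25 min cleavage at room temperature. Measured by: fluorescence, ex 355 nm, em 460 nm. Read-out basis: percent inhibition. Control set: wells without proteasome as full block, compound-free enzyme plus substrate as uninhibited.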
E coli growth: E. coli growth inhibition, primary screen, OD600 | 330,000 tested, 0.21% active | AID 1053175, 2014 | OD600 absorbance (concentration not given with the values) | Escherichia coli growth, 23 h; hits give low values;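 active = OD600 absorbance below the run mean of sample wells minus 3.6 SD, in any replicate, cut at about 0.56 in these data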;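 note: stock transfer was 300 nL into about 60 µL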
FGF22 binding: binders of human FGF22 protein, primary screen, FGF22 synaptogenesis inhibitor project, biophysical, thermal shift, single point | recombinant FGF22 thermal shift, SYPRO orange fluorescence; percent of sucrose octasulfate shift, DMSO zero | 340,000 tested, 1.5% active | calls only at 9.99 µM | AID 651658, 2012;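 active = melting point raised past a set limit in the mean and every replicate; three in four hits are not shown here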
Beta2AR agonist: beta2AR agonists driving receptor internalization, primary screen, cell-based, FAP fluorogen, flow cytometry. 340,000 tested, 0.43% active. response, % (test concentration not listed). Am2.2-beta2AR cells; reference of the scale not given here. AID 504454, 2011. Beta-2 adrenergic receptor (Homo sapiens), P07550;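 active = response above a set limit, near 3 SD of response in nonfluorescent compounds, cut at about 42% in these data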;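 note: stock transfer was 100 nL into about 11 µL; a reference agonist was the positive control; negative values mostly stem from fluorescent compounds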
Target sequence (P07550 whole entry, looked up): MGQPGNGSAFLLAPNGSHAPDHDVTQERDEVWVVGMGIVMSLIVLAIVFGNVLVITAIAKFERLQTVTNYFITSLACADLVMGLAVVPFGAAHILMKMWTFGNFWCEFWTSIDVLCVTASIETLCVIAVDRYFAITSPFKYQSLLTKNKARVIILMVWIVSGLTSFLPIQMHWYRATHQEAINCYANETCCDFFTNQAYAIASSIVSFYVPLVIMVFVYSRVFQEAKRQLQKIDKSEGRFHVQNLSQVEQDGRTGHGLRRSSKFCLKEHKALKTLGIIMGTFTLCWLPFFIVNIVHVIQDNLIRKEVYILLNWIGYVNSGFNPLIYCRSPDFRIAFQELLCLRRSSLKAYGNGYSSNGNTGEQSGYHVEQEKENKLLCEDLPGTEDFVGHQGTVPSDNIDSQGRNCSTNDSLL
* = called active by the depositor; i = inactive; . = no result given. This is a subset; count on the stated rates, not on these rows.

SMILES	ALR H2O2 inh	HNF4A DNA FP	LANA-H2A inh	UCH37 DUB inh	E coli growth	FGF22 binding	Beta2AR agonist
COc1ccc(NC(C)=O)cc1NC(=O)CSc1nnc(-c2ccccn2)n1C	-16	-4.2	5.2	0.0	0.73	.	-5
Cc1nc(-c2ccccc2)sc1C(=O)Nc1ccc(S(N)(=O)=O)cc1	11	-1.2	-0.3	-5.4	0.71	i	12
COCCNC(=S)NNC(=O)c1cc(-c2cccnc2)nc2ccccc12	33	0.3	-3.9	3.7	0.71	i	-10
Cc1cc(=O)[nH]c(NCc2ccc(Cl)cc2)n1	-9	5.1	1.1	4.3	0.67	i	-2
N#C/C(=C\c1ccncc1)c1ccc(NC(N)=O)cc1	-5	0.2	-6.5	-5.0	0.66	i	4
Cc1ccc(NC(=O)Nc2c(C)n(C)n(-c3ccccc3)c2=O)cc1	19	-0.1	1.2	-1.3	0.65	i	-6
CCN(CCO)c1ccc(N=Nc2cc(C)[nH]n2)cc1	84*	47*	-3.0	18	0.63	i	0
COc1cccc(NS(=O)(=O)c2cc3c(cc2C)N(C)CCO3)c1	7	-3.4	2.8	4.2	0.8	i	4
C=CCn1c(SCC(=O)NCC2CCCO2)nc2sc(C)c(C)c2c1=O (centres undefined)	-2	0.0	3.5	7.2	0.7	i	0
CCOc1cc(Br)c(COc2ccc(C)nc2[N+](=O)[O-])cc1OCC	-4	1.5	0.1	1.8	0.67	i	-3
CC1(C)CC(NS(=O)(=O)c2ccc(S(=O)(=O)N3CCOCC3)cc2)CCO1 (centres undefined)	-5	1.6	0.6	1.2	0.71	.	2
COc1cccc(C2C3=C(CC(C)(C)CC3=O)Nc3cc4c(cc32)OCO4)c1 (centres undefined)	54	3.2	-1.9	-111	0.73	i	10
CCOC(=O)c1cnn(Cc2ccccc2)c1N	-6	-0.8	-4.0	6.8	0.69	i	-4
CN(C)S(=O)(=O)c1cccc(C(=O)NCC2CCCO2)c1 (centres undefined)	-3	1.8	-3.3	3.1	0.81	.	-1
Cc1c(NC(=O)CSc2ncn[nH]2)c(=O)n(-c2ccccc2)n1C	-19	-0.6	-2.6	1.2	0.73	.	0
COc1cc2oc3cc(C)oc(=O)c3c2cc1OC	-119	-1.3	-8.3	-480	0.66	i	-3
COc1ccc(NS(=O)(=O)c2csc(C(N)=O)c2)cc1OC	-2	-4.1	-0.6	0.2	0.63	i	-4
O=C(OCc1ccc([N+](=O)[O-])cc1)c1cnc(Cl)c(Cl)c1	-10	-1.0	1.7	4.0	0.67	i	7
O=C(CN(Cc1ccccc1)S(=O)(=O)c1ccc(Br)cc1)N/N=C/c1ccccc1C(=O)O	5	0.4	4.3	.	.	i	-7
CC1CCC(=O)N(CCSc2ccccc2)CC1 (centres undefined)	-3	3.4	3.1	0.3	.	i	-1
CCN(CC)S(=O)(=O)c1cc(C(=O)N=c2sccn2C)ccc1OC	-2	5.0	-3.5	2.4	0.69	.	-11
O=C(O)c1cccc(Br)c1	.	2.7	.	.	.	i	6
CC(C(=O)NC1CCCC1)N(c1ccc(Oc2ccccc2)cc1)S(C)(=O)=O (centres undefined)	-3	-2.7	1.0	0.8	0.69	i	3
CCn1cc([N+](=O)[O-])c(C(=O)Nc2ccn(Cc3ccccc3)n2)n1	3	3.0	-6.1	1.6	0.71	i	-4
O=C(c1ccc2c(c1)OCO2)N(CC1CCCO1)C1(C(=O)NC2CCCCC2)CCCCC1 (centres undefined)	2	-0.8	4.7	-0.5	0.7	.	2
Cc1ccc(S(=O)(=O)N(C)CC(=O)OCC(=O)NC(=O)Nc2ccc3c(c2)OCCO3)cc1	-7	0.8	-1.6	0.4	0.68	.	6
COc1ccccc1N1CCN(S(=O)(=O)c2cc(C(F)(F)F)cc(C(F)(F)F)c2)CC1	-2	4.8	3.3	3.7	0.61	i	2
O=C(Nc1ccccc1Br)C1CCN(C(=O)Cc2ccccc2)CC1	-3	3.0	3.8	0.4	0.72	.	2
CSc1nnc(-c2ccccc2SC)o1	-2	-1.0	0.9	-3.7	0.66	i	-11
CC1CCN(S(=O)(=O)c2ccc3c(c2)N(CC(=O)NCCCOC(C)C)C(=O)CS3)CC1	-5	-2.2	1.6	-2.2	0.69	i	-10
O=C(Cn1nc(-c2ccc3c(c2)OCCO3)ccc1=O)Nc1ccc(-n2cnnn2)cc1	-2	1.9	-2.1	.	.	i	7
COc1ccc(-n2cc(C(=O)c3cc4ccccc4oc3=O)c(C(C)=O)n2)cc1	-4	-0.1	-0.2	3.2	0.73	.	-14
COc1ccc(CC(=O)NCC(=O)N/N=C(/C)c2ccco2)cc1	-1	0.1	2.6	.	.	i	-5
CCOc1ccc(NC(=O)CN2CCN(CC(=O)Nc3ccc(OC)cc3OC)CC2)cc1	-6	2.2	2.0	0.1	0.69	i	6
CC(C)(C)n1ncc2c(=O)n(CC(=O)Nc3ccc4c(c3)OCCO4)cnc21	-2	-2.1	-3.0	2.6	0.69	.	-9
CC(=O)Nc1c(O)nc(C)[nH]c1=O	-4	.	6.5	0.9	0.72	i	.
O=S(=O)(Nc1ccc2c(c1)OCCO2)c1ccc(F)cc1	3	1.8	0.6	1.4	0.66	.	-1
O=C(NCCCO)C(=O)Nc1cc2c3c(c1)CCC(=O)N3CCC2	3	2.9	19*	3.8	0.69	i	-1
Cc1ccc(OCC(O)CN2CCN(CC(O)COC(C)C)CC2)c(C(C)(C)C)c1 (centres undefined)	0	1.7	-6.9	-1.4	0.7	.	4
CC(=O)Nc1cccc(NC(=O)CSc2nc(C3CC3)nc3ccccc23)c1	.	-1.1	2.6	3.4	0.69	i	-5

Structures listed so far marked active in LANA-H2A inh:
compound	ALR H2O2 inh	HNF4A DNA FP	LANA-H2A inh	UCH37 DUB inh	FGF22 binding	Beta2AR agonist
O=C(NCCCO)C(=O)Nc1cc2c3c(c1)CCC(=O)N3CCC2	3	2.9	19*	3.8	i	-1

Compound profiles, from the list above. Order of screens: ALR H2O2 inh	HNF4A DNA FP	LANA-H2A inh	UCH37 DUB inh	E coli growth	FGF22 binding	Beta2AR agonist
O=S(=O)(Nc1ccc2c(c1)OCCO2)c1ccc(F)cc1 in the list: 3	1.8	0.6	1.4	0.66	.	-1
O=C(NCCCO)C(=O)Nc1cc2c3c(c1)CCC(=O)N3CCC2 in the list: 3	2.9	19*	3.8	0.69	i	-1
Cc1ccc(OCC(O)CN2CCN(CC(O)COC(C)C)CC2)c(C(C)(C)C)c1 (centres undefined) in the list: 0	1.7	-6.9	-1.4	0.7	.	4

(listing goes on)
SMILES	ALR H2O2 inh	HNF4A DNA FP	LANA-H2A inh	UCH37 DUB inh	E coli growth	FGF22 binding	Beta2AR agonist
CCC(Cc1ccccc1)NC(=O)C1CCC(CNc2c(N3CCCC3)c(=O)c2=O)CC1 (centres undefined)	-3	-0.1	0.0	4.1	0.75	i	-4
CC(=O)N1CCN(Cc2nc(C(c3ccccc3)c3ccccc3)no2)CC1	-1	-3.5	1.3	3.8	0.73	.	-8
COc1cc2nc(C3CCC3)n(NC(=O)COc3ccccc3)c(=O)c2cc1OC	-4	-2.7	2.1	-0.3	0.73	.	2
CC(=O)Nc1ccc(C(=O)CSc2nnc(-c3ccccc3F)n2CCc2ccccc2)cc1	.	9.6	.	3.7	0.66	i	-6
Cc1ccc(Nc2ccccc2)cc1	7	-2.1	2.2	3.7	0.76	.	6
COC(=O)[C@H](Cc1c[nH]c2ccccc12)NC(=O)Cc1c[nH]c2ccccc12	3	0.2	9.5	4.7	0.67	i	0
O=C(O)c1cccc(NC(=O)c2cccc(S(=O)(=O)N3CCc4ccccc4C3)c2)c1	-7	-1.4	-0.7	2.9	0.65	.	0
Cc1nc2ccccc2c2nc(NC(=O)Cc3ccccc3)nn12	-4	-1.9	1.9	1.7	0.72	.	0
CCOC(=O)CN1N=C(/C=C/c2ccccc2)CCC1=O	.	4.1	-2.2	5.1	0.79	.	6
CSCCC(NC(=O)c1ccccc1Cl)C(=O)NCC1COc2ccccc2O1 (centres undefined)	.	-1.1	.	2.5	0.67	i	2
CC(=O)c1cc(NC(=O)c2ccc(C)cc2)c(=O)oc1C	45	3.1	3.2	5.9	0.67	i	3
CCOc1ccc(OCCC(=O)OCC(=O)N2CCN(S(=O)(=O)c3ccc(Cl)cc3)CC2)cc1	26	-3.8	5.3	4.0	0.65	i	8
COc1ccc(/C=C2\SC(=O)N(CCC(=O)N3CCN(C)CC3)C2=O)cc1	3	-3.0	1.5	8.8	0.71	i	-5
Cc1cnc(NC(=O)CCCc2nc3ccccc3s2)s1	.	-0.5	1.6	4.2	0.77	.	6
CCOC(=O)C1=C(C)Nc2ncnn2C1c1c[nH]c2ccccc12 (centres undefined)	-5	1.0	2.5	4.3	0.71	i	0
Cc1cc(C)c(NC(=O)C(C)c2cccc(C(=O)c3ccccc3)c2)c(C)c1 (centres undefined)	-19	-2.8	-2.8	-0.9	0.69	i	8
CCOC(=O)C1=C(C)C2C3C(=O)N(c4ccccc4C)C(=O)C3C1(C)C1C(=O)N(c3ccccc3C)C(=O)C21 (centres undefined)	.	2.1	2.0	2.4	0.71	i	15
Cc1ccccc1N1CCN(C(=O)c2cccnc2)CC1	.	4.7	.	1.4	0.69	i	4
Cn1c(CNC(=O)c2ccccc2F)nnc1SCC(=O)Nc1nncs1	-11	3.2	6.0	1.6	0.63	i	2
CC1CCCN(C(=O)CN2C(=O)NC(C)(c3ccc4ccccc4c3)C2=O)C1 (centres undefined)	-2	5.5	-1.3	1.1	0.71	i	-15

Individual results from the entries so far:
CC1CCC(=O)N(CCSc2ccccc2)CC1 (centres undefined) in UCH37 DUB inh: 0.3
Cc1cnc(NC(=O)CCCc2nc3ccccc3s2)s1 in E coli growth: 0.77
CC1CCN(S(=O)(=O)c2ccc3c(c2)N(CC(=O)NCCCOC(C)C)C(=O)CS3)CC1 in ALR H2O2 inh: -5
O=C(O)c1cccc(NC(=O)c2cccc(S(=O)(=O)N3CCc4ccccc4C3)c2)c1 in UCH37 DUB inh: 2.9

Continued:
SMILES	ALR H2O2 inh	HNF4A DNA FP	LANA-H2A inh	UCH37 DUB inh	E coli growth	FGF22 binding	Beta2AR agonist
Cc1cc(NC(=O)CSc2nc(=O)cc(N)n2-c2ccc(C)c(C)c2)no1	-6	-3.1	5.5	4.6	0.69	i	8
CCc1ccc(NC(=O)C2=CC=CN3CCS(=O)(=O)N=C23)cc1	1	2.0	0.3	6.9	0.69	i	-5
COc1cccc(NC(=O)CN(C)C(C)C(=O)Nc2ccc(C(C)=O)cc2)c1 (centres undefined)	-5	0.0	2.2	2.0	0.7	i	0
CCN(CC(=O)NCc1cccs1)C(=O)c1ccccc1F	-19	-0.8	2.4	1.7	0.69	i	8
Cc1ccc(NC(=O)NC2CCCCCCC2)cc1C	-12	1.8	0.5	0.2	0.66	i	-7
COc1ccc(CSc2n[nH]c(C)n2)cc1[N+](=O)[O-]	-47	2.6	0.3	3.8	0.62	.	-5
O=S(=O)(NCc1ccco1)c1cnc(Cl)c(Br)c1	-2	0.1	-4.2	5.7	0.65	i	16
CS(=O)(=O)N(CCc1ccccc1)CC(=O)NCc1ccc2c(c1)OCO2	-3	0.8	3.2	3.3	0.68	.	1
Cc1c(C(=O)OCC(=O)N2CCCCC2C)oc2ccccc12 (centres undefined)	.	3.6	-3.2	6.3	0.68	i	-8
N#Cc1ccccc1NC(=O)COC(=O)c1cccs1	.	3.2	-8.2	1.2	0.72	i	0
O=C1c2ccccc2C(=O)N1Cc1nc(-c2ccncc2)no1	-10	1.2	0.0	-1.6	0.68	i	-1
